Screening results from PubChem.
rRNA inh HTS – selective bacterial rRNA inhibition in E. coli; E. coli WT GFP vs humanized-ribosome RFP mutants, fluorescence, 24 h; hits give low values; DMSO median 0, no signal -100; GFP signal change (wild-type ribosome), % (test concentration not listed); actives 1.6% (n = 350,000);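 active = significant combined selectivity score with lowered wild-type GFP, culture density cut under 30%, mutant RFP and density less affected; inactive = any of these conditions unmet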; note: one replicate is shown; some compounds called inactive have numbers as strong as hits
HNF4A DNA FP – change in binding of human HNF4 alpha to DNA | P41235 | HNF4a-FITC DNA binding, fluorescence polarization, 1 h | actives 0.3% (n = 360,000) | activity change, % at 10 µM; in the data active = activity change above about 30%, passing the limit was not always enough;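 note: controls were the assay level and a saturating level of protein; the project sought stronger binding though the title names inhibitors; some compounds called inactive have numbers as strong as hits; positive values seem to mean higher polarization but the record does not say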
Target sequence (P41235 whole entry, looked up): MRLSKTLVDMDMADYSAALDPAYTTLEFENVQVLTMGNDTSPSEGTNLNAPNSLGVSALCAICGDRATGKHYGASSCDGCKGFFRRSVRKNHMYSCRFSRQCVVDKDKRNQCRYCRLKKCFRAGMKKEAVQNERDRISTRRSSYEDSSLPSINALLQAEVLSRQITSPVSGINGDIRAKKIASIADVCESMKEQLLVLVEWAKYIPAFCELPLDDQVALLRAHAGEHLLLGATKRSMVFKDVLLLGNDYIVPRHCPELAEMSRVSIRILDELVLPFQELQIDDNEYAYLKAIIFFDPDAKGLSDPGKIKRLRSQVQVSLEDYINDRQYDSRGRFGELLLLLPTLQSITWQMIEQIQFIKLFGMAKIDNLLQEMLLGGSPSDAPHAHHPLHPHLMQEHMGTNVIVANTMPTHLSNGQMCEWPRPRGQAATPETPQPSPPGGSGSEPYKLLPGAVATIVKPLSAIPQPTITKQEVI
ALR inh – blocks human ALR sulfhydryl oxidase activity; actives 3.8% (n = 290,000); inhibition, % (test concentration not listed); AID 485317; purified ALR, DTT oxidation, H2O2 HRP-luminol luminescence; P55789;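 active = mean and each replicate at 75% or more; inconclusive = only one of the two met; inactive = neither met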;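 note: stock transfer was 7.5 nL into about 7.5 µL; 0% = neutral wells and 100% = wells with inactivated enzyme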
Target sequence (P55789 whole entry, looked up): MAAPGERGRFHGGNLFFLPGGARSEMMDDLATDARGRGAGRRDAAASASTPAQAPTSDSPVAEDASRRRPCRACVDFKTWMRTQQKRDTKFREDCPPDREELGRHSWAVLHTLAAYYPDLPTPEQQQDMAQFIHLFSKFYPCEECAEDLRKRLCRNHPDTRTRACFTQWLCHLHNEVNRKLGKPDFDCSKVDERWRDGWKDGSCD
Vif TR-FRET – HIV-1 Vif–A3G interaction blockers – biochemical, TR-FRET, GST-Vif 1-94, biotin-A3G peptide, dose response retest, primary screen (AID 1117319) | actives 0.57% (n = 260,000) | one-dose inhibition, %; IC50 in µM for titrated hits | TR-FRET GST-Vif / biotin-A3G peptide binding; higher % means a stronger effect; test concentration not given here; strong numbers were not always called active;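 active = above the screen mean plus three standard deviations and confirmed in dose response; inconclusive = results disagree or hit not tested in dose response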;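 note: Vif residues 1-94 fused to GST binding biotinylated APOBEC3G peptide 110-148; 0% = full assay without inhibitor and 100% = GST in place of GST-Vif; retest series ran down from 100 µM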
Ecoli growth – inhibitors of Escherichia coli growth; actives 0.21% (n = 330,000); OD600, 23 h; hits give low values; OD600 absorbance (test concentration not listed); AID 1053175;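 active = OD600 absorbance below the run mean of sample wells minus 3.6 SD, in any replicate, cut at about 0.56 in these data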;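 note: stock transfer was 300 nL into about 60 µL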
FGF22 binding – shifts melting point of recombinant human FGF22; Q9HCT0; recombinant FGF22 thermal shift, SYPRO orange fluorescence; percent of sucrose octasulfate shift, DMSO zero; calls only at 9.99 µM; actives 1.5% (n = 340,000); AID 651658;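 active = melting point raised past a set limit in the mean and every replicate; inconclusive = no clear call; three in four hits are not shown here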
Target sequence (Q9HCT0 whole entry, looked up): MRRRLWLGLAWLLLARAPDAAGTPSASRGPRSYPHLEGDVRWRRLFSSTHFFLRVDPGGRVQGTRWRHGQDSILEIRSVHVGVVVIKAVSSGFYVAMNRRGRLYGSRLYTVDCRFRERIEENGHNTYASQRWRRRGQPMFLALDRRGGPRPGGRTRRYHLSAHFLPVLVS
AF4-AF9 inh – blocks AF4 peptide binding to human AF9; P42568; AlphaScreen, biotin-AF4 peptide binding to FLAG-AF9; inhibition, % at 10 µM; actives 0.47% (n = 350,000); AID 651704;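 active = every replicate reaching a set inhibition limit, whatever the replicate mean, cut at about 25% in these data; inconclusive = mean inhibition reaches that limit but some replicates miss it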;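 note: 0% = plate neutral control median and 100% = total signal loss; the record names both 10 and 1 µM as test concentration; the first replicate is given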
rRNA inh HTS OD600 – recorded beside rRNA inh HTS, whose call it bears; OD600 change, %; measured here: OD600 growth;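 optical density of the mix in the first replicate; 0 = DMSO median and -100 = no signal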
rRNA inh HTS RFP – second read-out of rRNA inh HTS, no call of its own (marks repeat the call); RFP signal change, %; measured here: RFP humanized mutant strains;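 first replicate; 0 = DMSO median and -100 = no signal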
* hit, by the source's call; i = inactive; ? = inconclusive; . = no result given; + = active, no number.

FGF22 binding | AF4-AF9 inh | ALR inh | Vif TR-FRET | rRNA inh HTS OD600 | rRNA inh HTS RFP | Ecoli growth | rRNA inh HTS | HNF4A DNA FP | SMILES
i | 1.2 | . | . | 10 | 7.9 | . | 15 | -1.8 | COC(=O)[C@@H]1C[C@@]2(O)[C@H](O)[C@H](O)[C@H](O)C[C@H]2N1CC1CC1
i | -2.4 | . | . | 2 | -1.2 | . | -1 | . | COCC(=O)Nc1ccc2c(c1)OC[C@H](C)N(C(=O)Cc1cccnc1)C[C@@H](C)[C@@H](OC)CN(C)C2=O
i | 8.9 | 3 | -3% | -69 | -36 | 0.68 | -57 | -1.3 | Cc1nn(-c2nc3ccccc3[nH]2)c(N)c1-c1ccc(Cl)cc1
i | -1.4 | . | . | -1 | -1.1 | . | 2 | . | CN1[C@@H]2Cn3c(ccc(-c4cccc(F)c4)c3=O)[C@H]1[C@@H](C(=O)NCc1ccccc1)[C@@H]2CO
i | 7.1 | . | 1% | 20 | 5.7 | 0.68 | 2 | . | O=c1[nH]c(=O)n(Cc2ccccc2)c2nc(-c3cccs3)n(CCO)c12
i | 5.1 | -13 | 33% | 12 | 4.4 | 0.68 | 5 | 10 | COc1ccccc1Nc1nc(-c2sc(NC(=O)C(C)(C)C)nc2C)cs1
i | -11 | -1 | -3% | 2 | -2.6 | 0.7 | -2 | 1.5 | COc1ccc(C(=O)CN2C(=O)NC3(CCCc4ccccc43)C2=O)cc1 (centres undefined)
i | -0.5 | . | . | 4 | 0.3 | . | 1 | . | Cc1noc(C)c1S(=O)(=O)N(C)C[C@@H]1OCCCC[C@H](C)Oc2ccc(NS(=O)(=O)c3ccc(Cl)cc3)cc2C(=O)N([C@H](C)CO)C[C@@H]1C
i | 9.9 | -6 | . | -76 | -17 | 0.65 | -53 | 0.7 | COc1ccccc1C1CCN(c2cc(O)ccc2[N+](=O)[O-])CC1
i | -2.1 | . | . | 9 | -0.1 | 0.74 | 6 | -0.6 | CCN(CC)C1CCN(C(=O)c2ccc3nc(Cc4ccc(OC)cc4)oc3c2)C1 (centres undefined)
. | . | -11 | 17% | . | . | 0.75 | . | -3.8 | CCCCOC(=O)c1ccc(NC(=O)c2cnc3n(c2=O)CCS3)cc1
i | -1.3 | -2 | 1% | -16 | -2.2 | 0.74 | -11 | 3.2 | Cc1ccc2c(c1)N(C(=O)CCC(=O)NCc1ccccc1)CC(C)O2 (centres undefined)
i | -0.8 | -17 | 8% | 16 | -0.3 | 0.64 | 16 | 4.0 | COc1ccc(CC(=O)Nc2ccc(OC(C)=O)cc2C(=O)O)cc1
i | 2.5 | -5 | . | 10 | -0.5 | 0.74 | -1 | 1.4 | COc1ccc(CCn2c(-c3cccc([N+](=O)[O-])c3)nc3nc4ccccc4nc32)cc1OC
i | 3.4 | . | . | 3 | 1.3 | . | -1 | . | COc1ccc(-c2ccc3c(c2)[C@@H]2[C@@H](CCN2C(=O)c2ccc4c(c2)OCO4)[C@@H](CO)N3C)cc1
i | -0.6 | . | 11% | -5 | 1.0 | 0.59 | -9 | -0.6 | CN1CCN(S(=O)(=O)c2ccc(N3CCN(c4ccccc4O)CC3)c([N+](=O)[O-])c2)CC1
i | 3.8 | -3 | -6% | 0 | 0.7 | 0.64 | 1 | 4.7 | CCCCC(=O)Nc1ccc(NC(=S)NC(=O)c2ccco2)cc1OC
. | . | -1 | 3.2µM* | . | . | 0.68 | . | 1.6 | CCOc1cc(N2CCOCC2)c(OCC)cc1NS(=O)(=O)c1ccc(Cl)s1
i | -0.8 | . | . | 6 | 0.2 | . | -2 | . | C[C@@H]1CN([C@@H](C)CO)C(=O)Cc2cc(NC(=O)NC3CCCCC3)ccc2O[C@H]1CN(C)C(=O)Nc1ccc(F)cc1
i | 0.8 | -9 | 1% | -9 | 0.3 | 0.71 | 8 | 3.8 | COc1ccc(Br)c(C(=O)Nc2nc3ccccc3[nH]2)c1
. | . | 2 | -66% | . | . | 0.69 | . | -1.4 | CCOC(=O)c1sc(NC(=O)c2ccc(S(=O)(=O)N(C)C)cc2)nc1C
i | -0.9 | . | . | 2 | -3.6 | . | -2 | . | Cc1noc(C)c1NC(=O)Nc1ccc2c(c1)C(=O)N([C@@H](C)CO)C[C@@H](C)[C@@H](CN(C)C(=O)Nc1c(C)noc1C)O2
. | -2.0 | . | 1% | -15 | -2.6 | 0.62 | -9 | 1.1 | CCOc1ccc(S(=O)(=O)N2CCC(C(=O)OCc3ccc(OC)cc3)CC2)cc1
i | -4.8 | -6 | . | 12 | 7.2 | 0.69 | 19 | 1.1 | O=C1CCC(C(=O)N2CCOCC2)CN1Cc1cccc(C(F)(F)F)c1 (centres undefined)
i | -5.6 | . | 4% | -56 | -5.0 | 0.71 | -23 | -0.1 | O=C(CCn1c(=O)oc2ccccc21)N(Cc1ccccc1)c1ccccc1
+ | 1.7 | 99* | 8% | -36 | -6.7 | . | -30 | -0.8 | COc1ccc(/C(=N\Nc2ccccc2C(=O)O)c2ccccc2)cc1
. | . | -8 | 1% | . | . | 0.69 | . | 0.8 | CCOc1ccccc1-n1c(SCC(N)=O)nnc1-c1cccnc1
. | . | 2 | 4% | . | . | 0.69 | . | -5.4 | CC(=O)Nc1ccc(N=Cc2nc(-c3ccc(C)cc3)oc2O)cc1
i | -0.6 | 43 | 10% | 0 | -7.6 | 0.71 | -17 | -3.8 | CCCCNC(=O)c1onc(CSc2ccc(F)c(F)c2)c1C(=O)O
. | . | -2 | 25% | . | . | . | . | 0.4 | CC(C)(C)NC(=O)C(=O)N/N=C/c1ccc(Br)cc1
. | . | -1 | 6% | . | . | 0.75 | . | 0.1 | Cn1nc(-c2ccccc2)c(-c2nc(-c3cccc(Cl)c3)no2)c1Cl
i | 0.4 | . | . | -16 | 6.5 | . | -13 | . | COC(=O)C[C@H]1CC[C@@H](NC(=O)Nc2ccc(C(F)(F)F)cc2)[C@H](CO)O1
i | -1.8 | -1 | -1% | 6 | -3.8 | 0.73 | 6 | -1.1 | COc1ccc(NC(=O)c2ccccc2NC(=O)C2CC=CCC2C(=O)O)cc1 (centres undefined)
i | -1.4 | . | . | 7 | -0.4 | . | 0 | . | CO[C@H]1CN(C)C(=O)c2cc(NC(=O)NC(C)C)ccc2OC[C@@H](C)N(C(=O)NC(C)C)C[C@@H]1C
i | 0.2 | -17 | 5% | 5 | -0.2 | 0.7 | 4 | -3.3 | O=C(NC1CCCCC1)C1CCC(CNS(=O)(=O)c2ccccc2)CC1 (centres undefined)
i | -1.1 | . | -4% | 6 | -6.4 | 0.67 | 4 | 5.5 | Cc1ccc(N(CC(=O)NCc2ccco2)C(=O)CCC(=O)Nc2nccs2)cc1C

An excerpt from above in order of the Ecoli growth value, falling.
FGF22 binding | AF4-AF9 inh | ALR inh | Vif TR-FRET | rRNA inh HTS OD600 | rRNA inh HTS RFP | Ecoli growth | rRNA inh HTS | HNF4A DNA FP | SMILES
i | 2.5 | -5 | . | 10 | -0.5 | 0.74 | -1 | 1.4 | COc1ccc(CCn2c(-c3cccc([N+](=O)[O-])c3)nc3nc4ccccc4nc32)cc1OC
i | -0.6 | 43 | 10% | 0 | -7.6 | 0.71 | -17 | -3.8 | CCCCNC(=O)c1onc(CSc2ccc(F)c(F)c2)c1C(=O)O
i | -11 | -1 | -3% | 2 | -2.6 | 0.7 | -2 | 1.5 | COc1ccc(C(=O)CN2C(=O)NC3(CCCc4ccccc43)C2=O)cc1 (centres undefined)
. | . | -8 | 1% | . | . | 0.69 | . | 0.8 | CCOc1ccccc1-n1c(SCC(N)=O)nnc1-c1cccnc1

The list goes on:
FGF22 binding | AF4-AF9 inh | ALR inh | Vif TR-FRET | rRNA inh HTS OD600 | rRNA inh HTS RFP | Ecoli growth | rRNA inh HTS | HNF4A DNA FP | SMILES
i | -1.3 | -4 | -3% | 8 | -1.4 | 0.68 | 5 | -3.1 | Cc1ccc(-n2ncc3c2CC(C)(C)CC3NC(=O)CCn2cncn2)cc1 (centres undefined)
i | 0.8 | 25 | ? | 12 | -0.7 | 0.68 | 10 | -2.4 | O=c1[nH][nH]c2cc(=O)n(-c3cccc(C(F)(F)F)c3)nc12
i | -0.4 | . | . | 31 | 0.6 | . | 6 | . | Cc1ccc(S(=O)(=O)N(C)C[C@@H]2Oc3c(cccc3N(C)C)C(=O)N([C@H](C)CO)C[C@@H]2C)cc1
i | 3.4 | -3 | . | 20 | 20 | 0.71 | 6 | -1.2 | COc1ccc(Cl)cc1NC(=S)NCCC(c1ccccc1)c1ccccc1
. | . | -18 | -7% | . | . | 0.7 | . | -1.1 | Cn1c(=O)cc(SCC(=O)NCCC2=CCCCC2)c2cc(Cl)ccc21
i | -3.1 | . | . | 8 | -0.9 | . | 4 | . | C[C@@H]1CN([C@H](C)CO)C(=O)Cc2cc(NC(=O)c3ccncc3)ccc2O[C@@H]1CN(C)C(=O)Nc1ccc(F)cc1
i | -1.5 | . | 0% | 2 | -1.1 | 0.68 | -1 | 1.8 | CCc1cccc(OCCOC(=O)CNS(=O)(=O)c2ccc(NC(C)=O)cc2)c1
i | -0.2 | 4 | 7% | . | . | 0.71 | . | 0.1 | COc1ccc(N2CC(NC(=O)NCC(C)C)CC2=O)cc1 (centres undefined)
i | 0.0 | . | . | 2 | 0.6 | . | 3 | . | CO[C@@H]1CN(C)C(=O)c2cc(NS(=O)(=O)CC(F)(F)F)ccc2OC[C@H](C)NC[C@@H]1C
i | -0.3 | . | . | 2 | -1.3 | . | 0 | . | C[C@@H]1CN([C@H](C)CO)C(=O)c2cc(NC(=O)CCCCCC(=O)Nc3ccccc3N)ccc2O[C@@H]1CN(C)Cc1ccccc1
. | . | -3 | 17% | . | . | 0.7 | . | -2.1 | CCCCNC(=O)OC1CCS(=O)(=O)C1 (centres undefined)
i | -1.2 | . | . | 0 | -2.4 | . | -3 | . | CO[C@@H]1CN(C)C(=O)c2ccc(NC(C)=O)cc2OC[C@H](C)N(Cc2ccncc2)C[C@@H]1C
i | -1.3 | 0 | ? | . | . | 0.69 | . | -6.0 | CN(C)CCn1nnc2c(=O)oc3ccccc3c21
. | . | -5 | -399% | . | . | 0.73 | . | 2.9 | N#Cc1c(-c2cccc(F)c2)cc(-c2ccccc2)nc1Br
. | . | -21 | 14µM* | . | . | 0.74 | . | -2.8 | O=C1CC(c2ccco2)CC(O)=C1C=NCC1CCNCC1 (centres undefined)
i | -0.9 | 47 | -2% | . | . | 0.7 | . | -0.5 | Cc1occc1-c1nnc(SCC(=O)c2c(N)n(C3CC3)c(=O)[nH]c2=O)n1C
. | . | -1 | -6% | . | . | 0.7 | . | 0.8 | NC(=O)Nc1ccccc1C(=O)NCCc1ccccc1
i | 11 | 12 | 13% | -37 | -3.4 | 0.7 | -20 | 3.9 | Cc1ccccc1NS(=O)(=O)c1ccc(C(=O)NNC(=O)c2ccccc2O)cc1
. | . | -1 | 3% | . | . | 0.75 | . | 3.1 | C=CCC(C)(NCc1ccccc1)c1ccccc1 (centres undefined)
. | . | 1 | 64% | . | . | 0.76 | . | 1.1 | O=C(Nc1ccc(-c2noc(-c3cccs3)n2)cc1)c1cccnc1
i | 0.3 | . | . | -6 | 5.8 | . | 2 | 2.5 | O=C(Nc1ccc(Oc2ccccc2)cc1)c1ccc2nc([C@@H]3O[C@H](CO)[C@H](O)[C@H](O)[C@H]3O)[nH]c2c1
i | 2.0 | -1 | . | 3 | -4.0 | 0.67 | 2 | 1.6 | COc1ccc([N+](=O)[O-])cc1N(CC(O)CN1CCCC1)S(=O)(=O)c1ccc(C)cc1 (centres undefined)

A portion of the library, so the mix of outcomes need not match the whole.
